Screening results: PubChem BioAssay, ICCB-Longwood Screening Facility, Harvard Medical School
HCMV NEC inh: inhibitors of HCMV UL50-UL53 nuclear egress complex interaction; HTRF UL50-UL53 interaction, normalized percent inhibition; AID 1918969; actives 0.15% (n = 190,000); inhibition, % (test concentration not listed);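 active = both replicates at 50% or more, plus weaker picks with an unusually low signal ratio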;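 also: stock transfer was 100 nL into about 20 µL; 0% = negative control wells and 100% = wells with untagged competitor protein; inactives centre near -12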
Sa growth inh: S. aureus growth inhibition; relative growth, % (concentration not given with the values); actives 0.53% (n = 170,000); AID 720641; S. aureus RN4220 growth, OD600, 20 h, 42 °C; hits give low values;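 active = growth at 42 °C up to 50% and 20 or more points under that at 30 °C, or under 10% at both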;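 also: 300 nL library stock went into each well; scaled to the means of positive and negative controls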
GIV Gai3 FP: blocks GIV peptide binding to rat Galpha-i3. P08753. Galpha-i3/FITC-GIV peptide fluorescence polarization, 90 min; hits give low values; scaled: aluminum fluoride 0%, vehicle 100%. percent of control (FP), % (concentration not given with the values). actives 0.42% (n = 210,000). AID 1224905;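 active = replicate mean at 85% of control or lower, very high polarization wells dropped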;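 also: wells of about 15 µL received 100 nL stock; the first replicate is given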
Target sequence (P08753 whole entry, looked up): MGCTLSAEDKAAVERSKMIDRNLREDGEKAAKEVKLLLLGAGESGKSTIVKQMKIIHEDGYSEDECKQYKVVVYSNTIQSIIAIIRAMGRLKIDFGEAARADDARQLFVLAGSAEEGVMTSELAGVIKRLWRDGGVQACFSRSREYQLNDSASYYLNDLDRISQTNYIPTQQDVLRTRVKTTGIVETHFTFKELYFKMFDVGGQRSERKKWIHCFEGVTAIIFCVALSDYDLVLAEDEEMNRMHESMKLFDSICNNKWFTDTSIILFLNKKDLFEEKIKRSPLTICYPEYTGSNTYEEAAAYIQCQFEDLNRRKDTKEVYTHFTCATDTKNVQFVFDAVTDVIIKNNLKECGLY
Sa growth inh second temp: second read-out of Sa growth inh, no call of its own (marks repeat the call); relative growth, %; measured here: growth at 30 °C;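 optical density after 20 h as mean of two plates; 100% = untreated growth and lower means inhibition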
Numbers without * were called inactive; / = not tested or not shown; & = joins results of further samples.

Start of the data: the first 18 compounds (preview)
SMILES	HCMV NEC inh	Sa growth inh	Sa growth inh second temp	GIV Gai3 FP
C=CCN1C(=O)CC(Nc2ccc(F)cc2)C1=O (stereo not given)	-20.1	102.2	100.7	101.8
C=CCn1c(=O)n(CC=C)c2cc3n[nH]nc3cc21	-26.5	111.2	75.1	97.2
Nn1c(SCC(=O)NC2CCCC2)nnc1C1COc2ccccc2O1 (stereo not given)	-37.8	87.9	90.0	/
Cc1ccc(N2C(=O)NC(=O)/C(=C\c3ccc(OC(C)C(=O)O)cc3)C2=O)cc1C (stereo not given)	22.2	/	/	113.7
O=C(Cc1csc2nc(-c3ccc(F)cc3)cn12)NCc1ccccc1	/	97.6	76.8	102.4
COc1cccc(NC(=O)CSc2nc3ccccc3n3c(C)nnc23)c1	-43.6	/	/	112.1
CSC(=NCC1CC1)NC(C)(C)C	-4.7	110.0	87.0	100.5
CCOC(=O)c1c(C)[nH]c(NC(=O)N2CCOCC2)c1C	-18.6	/	/	97.5
COC(=O)c1ccc(/C=N/OCC(=O)N(C)C2CCCCC2)cc1	-30.1	104.1	84.3	/
CCN(CC)S(=O)(=O)c1ccc(-c2cc(C(F)(F)F)on2)o1	-14.8	/	/	108.1
CCNS(=O)(=O)c1ccc(NC(=O)Nc2cccc(OC)c2)cc1	-11.9	100.2	93.3	96.9
CCC(=O)Nc1ccc2nc(C)n(Cc3ccccc3)c(=O)c2c1	-0.2	94.0	63.1	99.2
O=C(CCC1N=C2c3ccccc3N=C(SCc3cccc(Cl)c3)N2C1=O)NCc1cccs1 (stereo not given)	/	79.7	85.3	96.5
O=S(=O)(c1ccc(Cl)cc1)c1nnn2c1nc(N1CCCCC1)c1sccc12	/	84.4	64.6	99.1
Cc1ccc2nc(NCCc3ccc(Cl)cc3)c3nncn3c2c1	-1.5	108.7	94.4	105.4
O=C(COc1ccc(Cl)cc1)OCc1cc(=O)n2nc(C3CC3)sc2n1	/	90.5	87.9	112.4
COC(=O)C1=C(N)OC2=C(C(=O)CC(c3ccccc3)C2)C1c1cccc(OC)c1 (stereo not given)	-2.1	/	/	102.3
CC(C)C1N=C2c3ccccc3N=C(SCC(=O)NCc3ccc(F)cc3)N2C1=O (stereo not given)	/	87.5	87.8	97.4

All compounds of this part, previewed entries included:
SMILES	HCMV NEC inh	Sa growth inh	Sa growth inh second temp	GIV Gai3 FP
C=CCN1C(=O)CC(Nc2ccc(F)cc2)C1=O (stereo not given)	-20.1	102.2	100.7	101.8
C=CCn1c(=O)n(CC=C)c2cc3n[nH]nc3cc21	-26.5	111.2	75.1	97.2
Nn1c(SCC(=O)NC2CCCC2)nnc1C1COc2ccccc2O1 (stereo not given)	-37.8	87.9	90.0	/
Cc1ccc(N2C(=O)NC(=O)/C(=C\c3ccc(OC(C)C(=O)O)cc3)C2=O)cc1C (stereo not given)	22.2	/	/	113.7
O=C(Cc1csc2nc(-c3ccc(F)cc3)cn12)NCc1ccccc1	/	97.6	76.8	102.4
COc1cccc(NC(=O)CSc2nc3ccccc3n3c(C)nnc23)c1	-43.6	/	/	112.1
CSC(=NCC1CC1)NC(C)(C)C	-4.7	110.0	87.0	100.5
CCOC(=O)c1c(C)[nH]c(NC(=O)N2CCOCC2)c1C	-18.6	/	/	97.5
COC(=O)c1ccc(/C=N/OCC(=O)N(C)C2CCCCC2)cc1	-30.1	104.1	84.3	/
CCN(CC)S(=O)(=O)c1ccc(-c2cc(C(F)(F)F)on2)o1	-14.8	/	/	108.1
CCNS(=O)(=O)c1ccc(NC(=O)Nc2cccc(OC)c2)cc1	-11.9	100.2	93.3	96.9
CCC(=O)Nc1ccc2nc(C)n(Cc3ccccc3)c(=O)c2c1	-0.2	94.0	63.1	99.2
O=C(CCC1N=C2c3ccccc3N=C(SCc3cccc(Cl)c3)N2C1=O)NCc1cccs1 (stereo not given)	/	79.7	85.3	96.5
O=S(=O)(c1ccc(Cl)cc1)c1nnn2c1nc(N1CCCCC1)c1sccc12	/	84.4	64.6	99.1
Cc1ccc2nc(NCCc3ccc(Cl)cc3)c3nncn3c2c1	-1.5	108.7	94.4	105.4
O=C(COc1ccc(Cl)cc1)OCc1cc(=O)n2nc(C3CC3)sc2n1	/	90.5	87.9	112.4
COC(=O)C1=C(N)OC2=C(C(=O)CC(c3ccccc3)C2)C1c1cccc(OC)c1 (stereo not given)	-2.1	/	/	102.3
CC(C)C1N=C2c3ccccc3N=C(SCC(=O)NCc3ccc(F)cc3)N2C1=O (stereo not given)	/	87.5	87.8	97.4
Cc1ccc(C)c(CSc2cn(CCNC(=O)c3cccs3)c3ccccc23)c1	-10.2	92.3	81.5	101.9
Cc1nc2ccccc2c2oc(C(=O)NC3CCN(Cc4ccccc4)CC3)cc12	-6.5	103.4	92.8	103.7
CCN(CC)S(=O)(=O)c1ccc2nc(NC(=O)c3ccc(Br)o3)sc2c1	/	69.2	79.5	97.1
CCc1ccc(N2C(=O)Nc3ccccc3S2(=O)=O)cc1	-20.6	78.2	87.0	103.8
CC(=O)Nc1ccc(S(=O)(=O)Nc2ccc(C#N)cc2)cc1	-8.0	89.1	92.2	105.6
CC(C)c1ccc(NC(=O)C2CCCN(S(=O)(=O)c3cccc4nsnc34)C2)cc1 (stereo not given)	-23.6	100.0	87.0	99.4
CC(C)c1ccc(N2C(=O)CSC23C(=O)N(Cc2cccc(F)c2)c2ccccc23)cc1 (stereo not given)	/	107.6	90.5	98.9
Cc1ccc(OCC(=O)Nc2nonc2-c2ccc(C)c(C)c2)cc1C	-4.2	110.8	90.2	101.5
CN(Cc1ccc(F)cc1)S(=O)(=O)c1nnc(NC(=O)c2ccc(F)cc2)s1	/	91.4	69.5	101.8
CCCC(=O)N1CCc2cc(OC)c(OC)cc2C1COc1ccc(C(=O)OC)cc1 (stereo not given)	/	78.8	95.2	98.7
COc1cc(C(=O)Nc2cc(C)c(O)c(-c3nc4cc(Cl)ccc4o3)c2)cc(OC)c1OC	-30.0	92.6	87.0	98.4
O=C(O)c1ccc(-c2ccc(CO)o2)cc1	-10.9	105.0	94.2	105.2
NC(Cc1ccc2nonc2c1)C(=O)O (stereo not given)	-25.1	112.1	85.8	96.9
CCOC(=O)c1c(NC(=O)/C=C/c2ccc(Cl)cc2)sc2c1CCC(C)C2 (stereo not given)	-45.7	107.7	94.0	105.0
CCC1C/C(=C/c2ccco2)C(=O)/C(=C/c2ccco2)C1 (stereo not given)	-29.2	50.9	31.1	196.2
O=C(CSc1ccc(-c2ccccn2)nn1)Nc1ccc(F)c(F)c1	/	90.7	68.0	108.3
Cc1cc(C)c(NC(=O)COC(=O)c2nccnc2N)c(Cl)c1	-36.4	71.5	93.5	/
CC(C)NC(=O)Nc1cc2c(cc1N1CCOCC1)n(C)c(=O)n2C	-9.8	/	/	98.6
CN1C(=O)c2cc(C(=O)NC3CC3)nn2CC1(C)C(=O)NC1CCCCC1 (stereo not given)	-0.9	/	/	104.3
Cc1ccnc(NC2CCCCC2)c1	-15.4	124.5	83.8	/
CCN1CCN(c2c(S(=O)(=O)c3ccc(C)c(C)c3)cnc3ccc(F)cc23)CC1	-37.9	108.0	85.5	103.1
Cc1cccc(NC(=O)c2ccc(F)c(S(=O)(=O)N3CCN(c4ccc(F)cc4)CC3)c2)c1	/	113.0	84.7	101.8
CCOc1ccccc1C(=O)Nc1ccc(S(=O)(=O)N(Cc2ccccc2)c2ccccc2)cc1	12.3	100.0	97.2	99.5
Nc1nnc(SCc2nnc(-c3cccs3)o2)s1	-8.3	73.8	82.1	/
CCOC(=O)c1c(S(=O)(=O)N2CCCC(C(=O)N3CCN(c4cccc(C)c4C)CC3)C2)c(C)n(C)c1C (stereo not given)	/	95.5	88.0	104.0
COc1cc(C(=O)OCc2cc(=O)n3ccsc3n2)cc(OC)c1OC	/	91.8	85.9	103.9
O=C(Nc1nnc(S(=O)(=O)N2CCCC2)s1)c1ccccc1F	-7.7	144.4	59.9	99.1
CN(C)S(=O)(=O)c1ccc(OCC(=O)O)cc1	-27.5	88.0	79.5	102.1
N#CC1=C(O)CCCn2c1nc1ccccc1c2=O	-26.2	79.3	91.3	/
Cc1oc(C(O)C(O)C(O)CO)cc1C(=O)O (stereo not given)	-31.3	78.7	89.3	/
CCCCCCNc1ncnc2c1sc1nc(N3CCOCC3)c3c(c12)CCCC3	-0.9	109.5	101.4	99.1
Cc1ccc2nc(-c3cc(-c4ccccc4)no3)cn2c1	-13.9	86.1	81.5	99.2
CCOC(=O)CSc1nc(N)c2c3c(sc2n1)CCCC3	0.3&-18.9	93.0	86.9	100.2
CCn1c(SCC(=O)OCc2c(C(=O)OC)sc(N)c2C(=O)OC)nnc1-c1cccs1	0.0	108.3	97.5	/
Nc1cc(=O)[nH]c2n[nH]c(=S)n12	-31.8	123.0	104.4	101.2
COc1cccc(-n2ccnc2SCC(=O)Nc2nc3ccc(C)cc3s2)c1	/	102.0	99.2	106.0
NC(=O)c1ccccc1OCc1ccc(F)cc1Cl	10.6	90.2	94.7	/
COc1ccc(NC(=O)c2c(NC(=O)C(F)(F)F)sc3c2CCCCC3)cc1	-61.8	29.2	0.7	106.0
O=C(NCCC1=CCCCC1)c1ccc(Cn2c(=S)[nH]c3cc4c(cc3c2=O)OCO4)cc1	/	99.8	98.3	103.2
COc1cccc(-n2c(=O)c3sc4ccccc4c3n(CC(=O)Nc3ccccc3OC)c2=O)c1	-8.8	105.6	94.2	100.3
COc1ccc2c(c1)CCc1c(C(=O)Nc3c(C)nn(Cc4ccccc4C)c3C)noc1-2	-14.8	98.8	91.2	102.6
CC(=O)c1ccc(NC(=O)Cn2c3ncccc3c(=O)n2-c2ccc(C)cc2)cc1	12.1	84.1	91.9	107.5
The list continues.
SMILES	HCMV NEC inh	Sa growth inh	Sa growth inh second temp	GIV Gai3 FP
CC1(C)OC(C(=O)NC2CCCCC2)C(C(=O)NC2CCCCC2)O1 (stereo not given)	-19.4	85.3	81.1	/
O=C(NCCCn1ccnc1)c1ccc(CN2CCc3ccccc3C2)cc1	-24.1	98.9	91.2	101.9
CC(=O)Nc1[nH]c2ccccc2c1O	-15.5	86.1	78.7	100.7
NS(=O)(=O)c1ccc2c(c1)CCN2	-17.1	113.5	87.7	/
Cc1cc(C)cc(NC(=O)CSc2oc(-c3ccco3)nc2S(=O)(=O)c2ccc(Cl)cc2)c1	-13.5	114.2	78.3	98.3
O=C1CSC(=S)N1/N=C/c1cccnc1	-59.4	95.8	83.5	103.2
CC(C)c1ccc(S(=O)(=O)N2CCCC(c3nc(-c4cccc(F)c4)no3)C2)cc1 (stereo not given)	-26.6	/	/	98.9
C=CCNC(=O)Cn1c(=S)[nH]c2ncccc2c1=O	/	105.7	95.6	102.4
O=C(NCc1ccc(F)cc1)c1ccc(O)cc1	1.0	117.2	88.2	/
O=C(O)c1c2c(nc3ccccc13)Cc1ccccc1-2	-111.5	84.9	73.8	/
O=c1oc(-c2ccccc2)nc2sc3c(c12)CCCCC3	-22.3	/	/	103.9
Cc1c(/C=C2/C(=O)Nc3ccc(Cl)cc32)cc(C#N)n1C	-16.7	83.1	92.2	/
CCc1cc2c(NCCCC(=O)O)ncnc2s1	-0.8	83.5	87.0	99.3
COC(=O)CNC(=O)C1CCC(c2ccc(Cl)cc2)CC1 (stereo not given)	30.2	85.2	90.9	102.9
O=C(COC(=O)c1cc2ccccc2cc1O)NCc1ccccc1	0.1	97.7	94.1	/
CCOC(=O)n1cc(C(=O)c2ccccc2O)cn1	0.2	97.3	94.8	/
CC(=O)OCCn1nc(-c2ccccc2)c2ccccc2c1=O	-1.4	94.3	80.6	103.6
Cc1cc(C)cc(NS(=O)(=O)c2ccc3[nH]cc(C(=O)N4CCCCC4)c(=O)c3c2)c1	-16.0	105.5	85.5	103.6
COCC(C)NCc1cc(F)ccc1F (stereo not given)	-19.9	111.0	97.1	106.4
CCc1cc(=O)oc2c(C)c3c(cc12)CN(Cc1ccco1)CO3	-38.3	86.1	81.4	105.1
COC(=O)c1c[nH]n2c(NC3CCCCC3)c(-c3cccc(Br)c3)nc12	/	93.0	81.3	97.5
CCc1cc2c(=O)n(Cc3ccco3)c(SCC(=O)Nc3ccc(F)cc3F)nc2s1	-14.2	93.7	94.1	/
Cc1cn(CCC(=O)O)c(=O)[nH]c1=O	/	81.3	86.6	100.2
Cc1ccc2c(c1)cc1c(=O)n(Cc3ccc(Cl)cc3)nc(C)n12	-24.2	105.8	87.5	104.1
CCOC(=O)C1CCCN(C(=O)CSc2ccc(Cl)cc2)C1 (stereo not given)	-4.2	99.4	92.1	/
CCOC(CCn1c(SCc2cccc(F)c2)nc2ccccc2c1=O)OCC	/	100.0	98.8	99.9
C=CCc1c(C)c2ccc(OC(C)=O)cc2oc1=O	-31.8	98.4	77.8	103.6

An unsorted share of the library; any-hit rate near 0.83%.
